Six1-Eya2 blk = blocks human Six1 binding to Eya2. AlphaScreen GST-Six1/His-Eya2 binding, biochemical; stronger effect = lower value; control for the full effect not named in the record. activity change, % (no concentration beside the values). hit rate 0.56% among 360,000; in the data active = activity change below about -65%; inconclusive = about -30% to -65%; inactive = above about -30%; also: % is scaled to controls: 0 for no effect and ±100 for the full control effect; compound concentration not given in the record
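AlphaScreen luminescence read after one hour at 37 °C in darkness. Pin-transferred compounds met GST-Six1 and His-Eya2 protein (5X stock 250 nM/500 nM) plus glutathione donor and Ni-chelate acceptor beads (5X, 50 ug/mL).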
D2 agonist = activates the human D2 dopamine receptor | DiscoveRx PathHunter D2 beta-arrestin, luminescence, 90 min; 100% = 57 uM dopamine signal | P14416 | hit rate 0.084% among 360,000 | activation, % (test concentration not listed); in the data active = activation above about 40%; inconclusive = about 15% to 40%; inactive = below about 15%; also: compound concentration not given in the record; the text of the record calls up to 30% inactive
Target sequence (P14416 whole entry, looked up): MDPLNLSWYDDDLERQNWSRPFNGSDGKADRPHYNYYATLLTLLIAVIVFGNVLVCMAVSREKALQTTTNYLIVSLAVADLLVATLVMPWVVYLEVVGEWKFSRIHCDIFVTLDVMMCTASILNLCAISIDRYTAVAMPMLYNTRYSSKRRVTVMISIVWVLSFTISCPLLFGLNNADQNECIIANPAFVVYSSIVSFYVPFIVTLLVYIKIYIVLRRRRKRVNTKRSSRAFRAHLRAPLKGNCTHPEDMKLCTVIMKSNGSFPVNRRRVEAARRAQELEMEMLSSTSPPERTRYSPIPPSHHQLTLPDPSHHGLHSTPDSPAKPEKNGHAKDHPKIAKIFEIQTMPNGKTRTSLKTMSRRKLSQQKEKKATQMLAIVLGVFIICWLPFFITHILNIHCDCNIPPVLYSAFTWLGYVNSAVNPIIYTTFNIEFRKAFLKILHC
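DiscoveRx PathHunter D2 beta-arrestin cells (2,100/well) attached overnight, then compound-stimulated 90 min at 37 C in HBSS/10 mM HEPES/0.1% Tween-20 buffer; beta-galactosidase complementation read by luminescence after 1 h at ambient temperature. Dopamine 57 uM final (EC100) as control.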
CtBP-E1A inh = CtBP/E1A binding inhibition. hit rate 0.49% among 340,000. AID 651724. AlphaScreen GST-E1A/His-CtBP binding, 1536-well; stronger effect = lower value; control for the full effect not named in the record. activity change, % (no concentration beside the values); in the data active means activity change below about -65%; inconclusive means about -30% to -65%; inactive means above about -30%; also: % is scaled to controls: 0 for no effect and ±100 for the full control effect; compound concentration not given in the record
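In 5 uL wells, 23 nL compound meets equimolar GST-E1A and His-CtBP (5X stock 125 nM each) for 2 h, 37 °C. Beads (5X, 50 ug/mL) then 1 h, 37 °C, dark.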
TRPML1 agonist = human mucolipin-1 channel agonism; Q9GZU1; TRPML1-expressing cells, Ca2+ dye fluorescence, FDSS; host cell line not named in the record; reference of the full effect not given here; activation, % (test concentration not listed); hit rate 0.12% among 410,000; AID 624414; in the data active = activation above about 50%; inconclusive = about 30% to 50%; inactive = below about 30%; also: 0% is about no effect; the text of the record puts the active cut at 80%
Target sequence (Q9GZU1 whole entry, looked up): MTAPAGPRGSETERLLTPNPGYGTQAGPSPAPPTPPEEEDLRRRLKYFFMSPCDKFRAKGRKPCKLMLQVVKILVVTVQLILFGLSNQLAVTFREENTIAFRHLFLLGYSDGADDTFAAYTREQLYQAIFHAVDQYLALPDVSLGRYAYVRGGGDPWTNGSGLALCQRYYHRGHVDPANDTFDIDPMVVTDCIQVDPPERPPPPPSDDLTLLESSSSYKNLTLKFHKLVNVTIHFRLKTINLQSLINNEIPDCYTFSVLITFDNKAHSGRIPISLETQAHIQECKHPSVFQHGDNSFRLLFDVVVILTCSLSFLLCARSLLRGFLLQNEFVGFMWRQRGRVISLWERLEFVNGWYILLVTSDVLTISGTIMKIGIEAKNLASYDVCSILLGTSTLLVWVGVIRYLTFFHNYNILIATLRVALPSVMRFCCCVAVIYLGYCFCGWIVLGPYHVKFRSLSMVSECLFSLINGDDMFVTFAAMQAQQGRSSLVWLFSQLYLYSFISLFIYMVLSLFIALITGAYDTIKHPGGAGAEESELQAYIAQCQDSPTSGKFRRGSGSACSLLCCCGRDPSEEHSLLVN
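Agonist activity was taken from a 110 s kinetic Ca2+ dye read on the FDSS after pinning compounds onto TRPML1-DL cells. The cells were seeded at 1,500/well with Tet inducer, incubated about 16 h, then dye-loaded at room temperature.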
PINK1 modulator = PINK1 expression modulation | Potency, µM (top dose mostly 76.6 µM), inactives show at the top dose activation (PINK1 increase), most hits filed as activators | PINK1 immunofluorescence, high-content cytometry, 24 h | AID 624263 | hit rate 0.2% among 410,000; active = well fitted activation curve with a large enough effect; inconclusive = small, poorly fitted or top-dose-only effect; inactive = flat fitted curve, though single readings scatter; cell line not stated here;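 also: potency is read from the fitted curve at half-maximal effect; % of control where 0% means no effect; nearly all actives have a fitted effect of over 65% in size; a mitochondrial uncoupler was the plate control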
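Cells are seeded, rested 12 hours, then given compound at five concentrations or DMSO for 24 hours. After fixation, blocking and antibody staining, PINK1 amount and mitochondrial localization are scored; CCCP serves as control.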
TRPML1 blocker = blocks the human TRPML1 channel; Q9GZU1; TRPML1-inducible cells, Ca2+ dye fluorescence, FDSS; stronger effect = lower value; inhibition of EC80 agonist-evoked calcium signal; activity change, negative = inhibition, % (test concentration not listed); hit rate 0.02% among 390,000; in the data active means activity change below about -50%; inconclusive means about -30% to -50%; inactive means above about -30%;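 also: stimulus is agonist 54-4 at its EC80 concentration; % is scaled to controls: 0 for no effect and ±100 for the full control effect; compound concentration not given in the record; the text of the record puts the active cut at -80%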
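Tet-induced TRPML1-DL cells loaded with Ca8 no-wash calcium dye were read kinetically on FDSS. Compound addition was followed by EC80 agonist 54-4 (4 uM final); inhibition was read over 110 s.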
* marks the source's active call; other numbers are inactive results; u = inconclusive; x = not tested or not shown; & = joins results of further samples; [ ] = another dose, or the depositor's remark.

structure	Six1-Eya2 blk	D2 agonist	CtBP-E1A inh	TRPML1 agonist	PINK1 modulator	TRPML1 blocker
COc1cccc(N2C(=O)c3cccnc3C2O)c1 (configuration not stated)	10	1.5	0	-0.2	0.9%	-9
Cc1ccc(NC(=O)C2CCN(S(=O)(=O)c3ccc4[nH]c5c(c4c3)CCCCC5)CC2)cc1	x	x	x	0.5	1.2%	-10
CCOc1ccc(-n2c(=S)sc3c(=O)n(-c4ccccc4)c(SC)nc32)cc1	-2	-0.4	-15	x	-1.2%	x
O=C(NCC(c1ccco1)N1CCCC1)c1ccc(S(=O)(=O)Nc2ccccc2Cl)cc1 (configuration not stated)	-10	-0.2	-13	0.2	-0.6%	2
COc1cccc(C(=O)Nc2cccc(NC(=O)c3ccccc3Cl)c2)c1	-13	4.4	x	-1.2	1.3%	3
CC(C)=CC(=O)Nc1cccc(S(=O)(=O)NC2=NCCCCC2)c1	4	0.1	x	-1.3	1.9%	2
COc1c(C)cccc1C(=O)Nc1ccc(N2CCN(S(C)(=O)=O)CC2)cc1	-1	-3.5	1	-0.6	-1.5%	-5
CC(=O)Nc1ccc(/C=C(\C#N)C(N)=O)cc1	-7	0.0	-14	0.7	-1.0%	7
C[C@H](CO)N1C[C@H](C)[C@@H](CN(C)Cc2ccccc2)Oc2c(NC(=O)C3CCCCC3)cccc2C1=O	-30	0.4	-23	-0.7	0.9%	15
OCCC1CN(Cc2cc3c(cc2Cl)OCO3)CCN1C1CCCC1 (configuration not stated)	-2	-3.5	x	0.4	-1.0%	11
CCOC(=O)c1ccc(S(=O)(=O)N2CCN(CC(=O)NC(=O)NC3CCCCC3)CC2)cc1	-3	-2.6	-5	0.6	-0.4%	0
COc1ccccc1CN1CCC(n2nccc2NC(=O)CCOc2ccccc2)CC1	-3	-6.7	1	-0.3	-1.0%	-19
Cc1cccc([C@@H]2[C@@H]3C(=O)N(Cc4ccccc4)C(=O)[C@@H]3[C@]3(Cc4ccc(Cl)cc4)C(=O)N(c4ccc(Br)cc4)C(=O)N23)c1	-1	-2.4	x	1.7	0.1%	-5
COc1cc(F)ccc1CN1CCC(C(=O)Nc2ccc(Oc3ccccc3)nc2)CC1	-2	-8.1	-4	1.3	3.3%	14
NC(=O)c1nsc(C(=O)N(Cc2ccco2)C(C(=O)NCc2ccccc2)c2ccc(O)cc2)c1N (configuration not stated)	-12	6.9	-1	1.8	1.5%	-3
CC(NC(=O)c1ccc(CS(C)(=O)=O)cc1)c1ccc(-n2ccnc2)cc1 (configuration not stated)	-3	-4.4	15	0.5	-2.8%	-10
CCCc1nnc(SCC(=O)N2C(C)CCCC2C)n1CCCOC (configuration not stated)	9	-2.5	6	4.2	-1.7%	3
CCCc1[nH]nc2c1C(c1cccc(OC)c1)C(C#N)=C(N)O2 (configuration not stated)	-5	-4.4	4	-0.7	-0.4%	5
CCc1noc(C)c1C(=O)N1CCN(S(=O)(=O)c2c(C)c(C)cc(C)c2C)CC1	-1	4.5	4	0.0	-0.9%	-8
CCCC1=[N+](CC(=O)c2ccccc2)CCn2c(C)ccc21	0	-4.5	2	-0.6	3.5%	4
Cc1nn(Cc2ccccc2Cl)c2sc(C(=O)NC(C)(C)C)cc12	-1	-0.7	5	3.2	-0.2%	0
Clc1ccc(N2CCN(c3ncnc4c3cnn4-c3ccccc3)CC2)cc1Cl	x	x	x	0.0	0.6%	18
Cn1nnnc1Sc1ncnc2scc(-c3ccc(F)cc3)c12	-3	-1.9	-5	-0.2&-0.6	-0.4%&3.0%	-2
Cc1ccc(NC(=O)c2ccc(OCc3c(C)noc3C)cc2)cc1C	2	-1.0	-4	0.2	-1.5%	3
O=C(CSc1nc2ccccc2[nH]1)c1ccco1	3	0.7	5	-0.4	4.0%	27
O=C(CN(C(=O)c1ccco1)c1cccc(F)c1)NCc1ccc(F)cc1	1	-0.3	3	0.2	-1.5%	2
Cc1ccccc1NC(=O)NC1CCCCCCC1	-21	-2.9	-6	0.6	4.0%	-11
CCOC(=O)N1CCN(c2nc(-c3cccc(OC)c3)cc(C(F)(F)F)n2)CC1	14	-4.9	7	-0.3	1.1%	27
Cc1cc(NC(=O)[C@H](C)NC(=O)c2ccco2)ccc1Br	1	1.7	x	0.2	0.6%	-4
CC1(C)CC(=O)C2=C(C1)OC(N)=C(C#N)C2c1ccc2c(c1)OCO2 (configuration not stated)	1	1.9	8	-1.1	1.0%	10
CC(C)Sc1ncc(Cl)c(C(=O)Nc2ccc(S(=O)(=O)N3CCCCC3C)cc2)n1 (configuration not stated)	x	x	x	14	2.1%	-16
CC(C)n1cc(CN2CCN(CCc3ccccc3)C(CCO)C2)cn1 (configuration not stated)	-3	-2.4	0	-0.5	-0.4%	6
COc1ccccc1S(=O)(=O)Cc1ccc(C(=O)NCc2ccc(C)cc2)o1	-1	-0.8	4	-0.5	0.4%	20
O=C(CCSCc1cccc(Cl)c1)NC1CCCC1	-6	-1.6	1	0.5	-1.2%	9
COc1ccc(NC(=O)C2C3C=CC4(CN(Cc5cccnc5)C(=O)C24)O3)c(OC)c1 (configuration not stated)	22	-1.4	32	0.3	1.4%	2
COc1ccc2cc(S(=O)(=O)NC3CC(C)(C)NC(C)(C)C3)ccc2c1	20	-1.3	-1	0.0	-2.1%	2
O=[N+]([O-])c1cc(/C=N/NC(=S)Nc2ccccc2Cl)ccc1Cl	-7	7.9	-1	0.0	-2.1%	17
CCCC[C@H]1COCCS(=O)(=O)N1Cc1ccc(Br)cc1	2	-4.6	10	0.4&-0.7	8.0%	26
Cc1[nH]c2ccccc2c1N=Nc1c(C)n(C)n(-c2ccccc2)c1=O	-26	-1.4	-26	0.2	-2.0%	-12
Cc1ccc(S(=O)(=O)N2CCOCC2)cc1C(=O)OCC(=O)Nc1ccc2[nH]c(=O)[nH]c2c1	-13	-3.4	23	1.3	0.0%	-14

3 entries picked at random from those above:
structure	Six1-Eya2 blk	D2 agonist	CtBP-E1A inh	TRPML1 agonist	PINK1 modulator	TRPML1 blocker
CC(C)n1cc(CN2CCN(CCc3ccccc3)C(CCO)C2)cn1 (configuration not stated)	-3	-2.4	0	-0.5	-0.4%	6
COc1ccc(NC(=O)C2C3C=CC4(CN(Cc5cccnc5)C(=O)C24)O3)c(OC)c1 (configuration not stated)	22	-1.4	32	0.3	1.4%	2
Cc1[nH]c2ccccc2c1N=Nc1c(C)n(C)n(-c2ccccc2)c1=O	-26	-1.4	-26	0.2	-2.0%	-12

More compounds
structure	Six1-Eya2 blk	D2 agonist	CtBP-E1A inh	TRPML1 agonist	PINK1 modulator	TRPML1 blocker
Cc1ccc(NC(=O)c2ccc(NC(=O)N3CCSc4ncccc43)cc2)c(C)c1	x	x	x	1.2	-0.1%	9
C/C(=N\NC(=O)c1nn(C)cc1Cl)c1ccncc1	14	0.8	24	0.1	1.3%	-14
O=C(NCCc1ccccc1)c1cccc(NC(=O)C2CCCCC2)c1	-3	1.0	4	-1.1	-0.5%	3
Cc1cc(C)n(-c2nc(NCCC(C)C)c3c4c(sc3n2)COC(C)(C)C4)n1	-8	-4.9	-3	0.5	22%	-9
Cc1ccc(CN2CCN(Cc3cccn3-c3ccccn3)CC2CCO)cc1 (configuration not stated)	1	-2.0	x	0.2	-1.7%	-1
C=CCNC(=O)Nc1ccc2nc(C)sc2c1	-10	-6.2	-19	-0.2	0.1%	12
Cc1nnc(SCC(=O)NNC(=O)COc2ccc(Br)cc2)n1C	1	-3.2	-7	0.0	-0.3%	56
Cc1nc2c(c(C)nn2-c2ccccc2)c(C)c1CCC(=O)Nc1ccc(F)cc1	x	x	x	2.0	6.2%	5
COc1ccc(Nc2ncnc3ccc(C)cc23)cc1	-1	0.6	x	0.5	-2.1%	4
CC1=NNC(=O)C1CCC(=O)N/N=C/C(Br)=C/c1ccccc1 (configuration not stated)	-14	0.3	-22	0.4	3.2%	3
Nc1[nH]n(-c2ccccc2)c(=O)c1N=Nc1ccc2ncsc2c1	u	-5.8	u	x	0.4%	x
O=S(=O)(c1cc(Cl)c(Cl)cc1Cl)N1CCN2CCCC2C1 (configuration not stated)	-10	0.4	5	0.4	13%	-13
COc1ccc(Cl)cc1-c1n[nH]c(=S)n1Cc1ccccc1	5	2.9	3	0.3	3.5%	5
Cn1c(=O)c2cc(S(=O)(=O)NC(C(=O)Nc3cccnc3)c3ccccc3)ccc2n(C)c1=O (configuration not stated)	-7	-8.4	4	-0.8	-0.3%	-12
CCc1cc(-c2cnnn2CCc2c[nH]c3ccccc23)ccc1-c1cn(CC(C)C)nn1	-8	1.0	-2	x	0.4%	x
CC(=O)Nc1ccc(SCC(=O)c2cc(C)n(Cc3cccs3)c2C)cc1	-9	-3.0	-2	0.5	1.1%	11
CCC(=O)Nc1ccc(S(=O)(=O)N2CCOCC2)cc1	0	-2.2	8	-0.2	u	-9
COc1ccc2sc(-c3ccc(S(C)(=O)=O)cc3)c(C(=O)NCCc3c[nH]c4ccccc34)c2c1	-11	6.3	-5	-0.2	0.9%	17
Brc1cccc(-c2nnn3c2nc(N2CCCCC2)c2ccccc23)c1	x	x	x	-0.7	1.1%	-19
CCc1cccc(N2C(=O)N(CC(=O)NCc3cccc(OC)c3OC)c3ccccc3S2(=O)=O)c1	x	x	x	-0.1	8.7%	-9
O=C(COC(=O)COc1ccccc1[N+](=O)[O-])Nc1ccccc1Br	17	-2.2	-20	-0.8	-0.6%	14
COc1ccc(N(CC(=O)NN=C2CCN(C)CC2)S(=O)(=O)c2ccccc2)c(OC)c1	-2	8.3	9	-0.2	1.3%	14
Cc1cccc2cc(CN(Cc3ccc4c(c3)OCO4)Cc3nnnn3C3CCCC3)c(=O)[nH]c12	-3	-3.0	0	0.8	-2.4%[38.3 µM]	0
COc1ccc(NC(=O)c2cc3nc(-c4ccc(C)c(C)c4)cc(C(F)(F)F)n3n2)cc1	x	x	x	-0.3	5.8%	-6
CC1CCCC(NC(=O)CSc2ncccn2)C1C (configuration not stated)	8	-2.3	-2	0.8	2.0%	25
Cc1ccc(N2C(=O)N3[C@H](c4ccc(Br)cc4)[C@@H]4C(=O)N(C(C)(C)C)C(=O)[C@@H]4[C@]3(C)C2=O)cc1	-5	-1.7	0	1.5	2.2%	4
Cc1ccc(C)c(OCCC(=O)OCC(=O)N2c3ccccc3NC(=O)C2(C)C)c1	-8	-2.9	8	3.9	0.5%	6
O=c1c2c(-c3ccc(Cl)cc3)ccnc2[nH]n1-c1ccccc1	x	x	x	-0.5	2.4%	-5
CCOc1ccc(N(CC(=O)N2CCN(C(=O)CN(c3ccc(OCC)cc3)S(C)(=O)=O)CC2)S(C)(=O)=O)cc1	4	-1.2	15	0.5	1.7%	-12
CCOc1ccccc1NC(=S)N1CCN(c2ccc(OC)cc2)CC1	-18	-1.8	-17	-0.4	1.2%	16
